GALR2 ag: agonists of human galanin receptor 2 (GALR2); GALR2-expressing cells, agonist activation read-out; activation, %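 (tested at 5 µM)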; 140,000 compounds, 0.48% hits; AID 803;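 active = above mean plus 3 SD of all compounds, about 5% in these data, not always enough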;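 note: 0% = vehicle buffer wells and 100% = reference agonist at full effect; tested in CHO reporter cells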
PKD1 inh: inhibitors of human PKD1 kinase; Q15139; PKD1 kinase fluorescence polarization assay; inhibition, %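 (about 10 µM by stock and volumes)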; 200,000 compounds, 0.056% hits; AID 797;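 active = inhibition of 50% or more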;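 note: controls were vehicle for no effect and a reference inhibitor for full effect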
Target sequence (Q15139 whole entry, looked up): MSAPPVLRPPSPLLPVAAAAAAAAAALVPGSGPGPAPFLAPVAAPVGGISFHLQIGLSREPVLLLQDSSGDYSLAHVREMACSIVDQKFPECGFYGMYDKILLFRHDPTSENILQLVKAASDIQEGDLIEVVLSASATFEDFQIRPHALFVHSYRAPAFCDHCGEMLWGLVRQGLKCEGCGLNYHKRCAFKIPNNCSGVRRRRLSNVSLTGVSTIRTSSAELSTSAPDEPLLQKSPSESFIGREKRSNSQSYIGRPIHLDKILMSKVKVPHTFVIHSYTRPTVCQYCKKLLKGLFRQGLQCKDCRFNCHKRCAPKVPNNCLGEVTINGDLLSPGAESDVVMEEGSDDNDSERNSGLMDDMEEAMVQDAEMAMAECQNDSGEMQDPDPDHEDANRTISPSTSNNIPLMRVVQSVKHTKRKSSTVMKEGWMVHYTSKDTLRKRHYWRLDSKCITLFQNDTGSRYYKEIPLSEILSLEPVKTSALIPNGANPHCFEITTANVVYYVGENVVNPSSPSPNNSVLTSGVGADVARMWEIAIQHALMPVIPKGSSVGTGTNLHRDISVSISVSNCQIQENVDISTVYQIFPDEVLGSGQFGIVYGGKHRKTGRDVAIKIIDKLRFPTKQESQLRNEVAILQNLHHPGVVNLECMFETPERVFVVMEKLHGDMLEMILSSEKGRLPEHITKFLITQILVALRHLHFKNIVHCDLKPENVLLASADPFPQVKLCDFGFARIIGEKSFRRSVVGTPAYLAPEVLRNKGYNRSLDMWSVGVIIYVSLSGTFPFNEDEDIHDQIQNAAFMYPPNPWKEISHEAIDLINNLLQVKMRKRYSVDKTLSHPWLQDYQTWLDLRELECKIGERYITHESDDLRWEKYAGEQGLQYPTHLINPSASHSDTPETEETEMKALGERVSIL
RGS16-Gao: RGS16-Galphao interaction regulator (human). O15492+P09471. 220,000 compounds, 0.38% hits. binding response (% of control), % at 10 µM. bead-based flow cytometry RGS16-Galphao binding, fluorescence; actives lie on both sides. AID 1441;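 active = below 25% or above 175%, edge rows of some plates excepted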;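 note: Galphao activated by GDP with aluminum fluoride before binding; 100% = wells without compound and 0% = beads without RGS; some results beyond the cut were filed as inactive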
INS promoter inh: TRM-6 insulin promoter activity inhibition | TRM-6 cells (human fetal islet line), insulin promoter-eGFP reporter, imaging; reporter expression induced with tamoxifen | inhibition, % at 2 µM | 130,000 compounds, 0.9% hits | AID 1273;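 active = inhibition above the mean plus 3 SD, with well images judged a real hit on visual review, cut at about 60% in these data, passing the limit was not always enough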
HSV augment: increases HSV replication in cells | HSV replication augmentation in cells, fold increase | maximum fold increase | 220,000 compounds, 0.005% hits | AID 1956;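 active = peak rise of 1.5-fold or more in the series; tested in PC3 cells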;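 note: first round at 10 µM; read as green reporter fluorescence; hits show the peak of a series up to 25 µM; 1 = signal of infected wells without compound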
INS promoter inh cell count: further read-out of INS promoter inh, marked with its call; normalized cell count, %; measured here: cell count, toxicity; reference of the scale not given here;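 cells exposed to compound for 48 h; stained nuclei by imaging scaled within each plate; lower means fewer cells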
HSV augment primary fold: also measured in HSV augment; calls as there; fold increase; compound at 10 µM; measured here: primary screen fold increase 10 uM; tested in PC3 cells;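 GFP signal in the first replicate; 1 = infected wells without compound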
Starred values were filed as active, the others as inactive; i = inactive; nt = not tested or not shown.

SMILES | GALR2 ag | PKD1 inh | RGS16-Gao | INS promoter inh | INS promoter inh cell count | HSV augment | HSV augment primary fold
COc1ccc(NC(=O)c2c(F)c(F)c(F)c(F)c2F)cc1Cl | -3.4 | -14 | 85 | -347 | 70 | i | 0.57
COc1cccc(OCC(=O)Nc2ccccc2C(N)=O)c1 | 0.8 | -16 | 102 | -230 | 29 | i | 1
O=C(NCCCNC(=O)NC1CCCCC1)NC1CCCCC1 | 0.0 | -4 | nt | 19 | 82 | i | 0.91
CCOC(=O)C(C(=O)OCC)C(C)(C)/C(C)=N\Nc1ccc([N+](=O)[O-])cc1[N+](=O)[O-] | -0.8 | 2 | 105 | 13 | 102 | i | 0.99
O=C(NC1CCCCC1)C1CCCN(S(=O)(=O)c2cccc3cccnc23)C1 (stereo unspecified) | nt | nt | 99 | nt | nt | i | 0.99
CCCC(=O)c1cc(F)c(N2CCN(C(=O)OCC)CC2)cc1C | 0.2 | 3 | 104 | nt | nt | i | 1
N#Cc1ccc(N2CCCC2C(=O)O)c([N+](=O)[O-])c1 (stereo unspecified) | 0.0 | 0 | 98 | -4 | 75 | i | 1.1
CC(=O)NC1CC2CCCC(C1)N2CC(=O)Nc1ccccc1 (stereo unspecified) | -3.1 | 2 | 136 | nt | nt | i | 0.93
Cc1cc(N2CCN(c3ccc(F)cc3)CC2)nc2cc(O)ccc12 | -1.2 | 3 | 101 | nt | nt | i | 0.86
CCOc1ccc(S(=O)(=O)N(CC(=O)O)c2ccccc2)cc1 | -1.4 | 15 | 113 | 34 | 97 | i | 0.9
COc1cc(-c2nc(-c3ccc(NC(=O)c4ccc5c(c4)OCO5)cc3)no2)cc(OC)c1OC | -2.2 | -9 | 108 | 31 | 147 | i | 0.83
CC1=CS/C(=C(/C#N)C(=O)NCc2ccco2)N1c1ccccc1 | -4.1 | -3 | 95 | nt | nt | i | 0.93
Cc1cccc(N2CCN(C(=O)c3cn4ccccc4n3)CC2C)c1 (stereo unspecified) | nt | -4 | 103 | -50 | 175 | i | 1
CCOC(=O)Cn1c(C)c(Br)c(COC)c(C#N)c1=O | nt | nt | 94 | nt | nt | i | 0.97
C=C[C@@](C)(O)CC[C@@H]1[C@@]2(C)CCCC(C)(C)[C@@H]2CC[C@@]1(C)O | nt | 13 | 97 | nt | nt | i | 0.74
C#CCNC(=O)/C=C/c1ccc(C)cc1 | -1.3 | -1 | 102 | nt | nt | i | 0.92
Cc1ccc(C(=O)N2CCN(C(=O)c3ccc(C)cc3)C2)cc1 | nt | -3 | 104 | nt | nt | i | 1
COc1cccc(N/C(SCc2ccccc2C)=C(/C#N)C(=O)NCc2cccs2)c1 | -0.6 | -3 | 104 | -106 | 106 | i | 1
O=C(Cn1cc([N+](=O)[O-])cn1)N1CCCc2ccccc21 | nt | -2 | 103 | -29 | 90 | i | 0.93
Cc1ccc(Cl)cc1NC(=O)COC(=O)CC(C)(C)C | nt | 0 | 80 | -82 | 88 | i | 0.96
Cc1noc(C)c1COc1cccc(C(=O)Nc2ccc(OCc3ccccc3)cc2)c1 | -3.2 | -3 | 98 | 26 | 177 | i | 0.96
COc1ccc(CSc2nnc(CNS(C)(=O)=O)o2)cc1 | -3.0 | -1 | 64 | -16 | 96 | i | 0.89
N#Cc1c(NC(=O)c2ccc(Br)o2)n(-c2ccccc2)c2nc3ccccc3nc12 | nt | nt | 121 | nt | nt | i | 1.2
CCN1CCN(S(=O)(=O)CC2(C)C3CCC2(C)C(=O)C3Br)CC1 (stereo unspecified) | nt | 6 | 101 | nt | nt | i | 1.1
Cc1cccc(NC(=O)CSc2nnc(-c3ccncc3)n2C)c1 | 0.2 | -5 | 49 | nt | nt | i | 0.87
CCCCC1=NN(C(=O)c2ccco2)C(O)(C(F)(F)F)C1 (stereo unspecified) | nt | -3 | 106 | nt | nt | i | 0.82
NNC(=O)COc1cccc2cccnc12 | -2.8 | -10 | 105 | -370 | 57 | i | 0.54
CCCOc1ccc(N2C(=O)CC(N(CCc3ccc(S(N)(=O)=O)cc3)C(C)=O)C2=O)cc1 (stereo unspecified) | -2.9 | 7 | 92 | -35 | 128 | i | 0.9
CCOC(=O)c1cnc(N)nc1C(F)(F)F | nt | -1 | 99 | nt | nt | i | 0.97
Cc1cccc[n+]1C1C(c2ccccc2)C(C#N)=C(C(=C=[N-])C#N)NC1(O)C1CC1 (stereo unspecified) | -2.9 | -7 | 102 | -54 | 108 | nt | nt
Cc1ccc(S(=O)(=O)Nc2nc3ccccc3nc2NCc2ccco2)cc1 | 0.7 | -1 | 95 | 19 | 45 | i | 1
COc1ccc(S(=O)(=O)N(CCc2ccccc2)CC(=O)O)cc1OC | -0.3 | 2 | 100 | nt | nt | i | 0.82
Cc1[nH]c2ccccc2c1/C=N/NC(=O)C1CC1(c1ccccc1)c1ccccc1 (stereo unspecified) | 0.5 | -5 | 140 | -54 | 123 | i | 0.76
COC(=O)CSc1nnc(-c2ccccc2O)n1-c1ccc(C)cc1 | -1.6 | -12 | 102 | nt | nt | i | 0.8
Cc1ccc(C(=O)NCC(=O)OC(C)C(=O)Nc2ccc(N(C)C)cc2)s1 (stereo unspecified) | nt | 3 | 100 | 29 | 72 | i | 1
O=C(Nc1ccc(-n2ccc(C(F)(F)F)n2)cc1)Nc1cccc(Cl)c1 | nt | nt | 115 | nt | nt | i | 0.78
COc1ccc(OCc2nc(N)nc(Nc3cccc(C)c3C)n2)cc1 | -1.6 | -9 | 100 | nt | nt | i | 0.81
Cc1cc(-c2cc(-c3ccc(Cl)cc3)on2)nc(NCC2CC2)n1 | nt | nt | 106 | nt | nt | i | 0.85
O=C1CC(c2ccccc2)n2nc(NC(=O)c3cccnc3)nc2N1 (stereo unspecified) | -1.0 | -6 | 103 | -57 | 53 | i | 0.92
O=C1NC(CCc2ccccc2)C(=O)N1Cc1ccccc1Cl (stereo unspecified) | 2.0 | -4 | 157 | nt | nt | i | 1
CCCOc1ccc(N2C(=O)CC(N3CCC(C(=O)OCC)CC3)C2=O)cc1 (stereo unspecified) | 0.1 | -3 | 86 | 9 | 107 | i | 1.1
Cc1ccccc1-c1nc(-c2cccnc2)no1 | -2.6 | -11 | 102 | nt | nt | i | 0.87
Cn1c(N)c(C(=O)Nc2ccc(-c3ccccc3)cc2)sc1=S | nt | nt | 102 | nt | nt | i | 0.79
Cc1c(C(=O)Nc2cc(S(=O)(=O)N3CCOCC3)ccc2N2CCOCC2)oc2ccccc12 | nt | -7 | 85 | -6 | 164 | i | 1.1
CC1=C(/C=C/C(C)=C/C=C/C(C)=C/C(=O)O)C(C)(C)CCC1 | -0.6 | -6 | 92 | -105 | 136 | i | 0.81
CCCOc1ccc(Cn2ccnc2)cc1[N+](=O)[O-] | -0.3 | -3 | 100 | -68 | 50 | i | 1
Cc1cc(C(=O)O)c(C)n1Cc1ccncc1 | nt | nt | 102 | nt | nt | i | 1
Cc1ccc(S(=O)(=O)CCc2nnc(NC(=O)c3ccccn3)s2)cc1 | 0.7 | 1 | 99 | nt | nt | i | 0.98

Retrieved one by one from the list above (4):
SMILES | GALR2 ag | PKD1 inh | RGS16-Gao | INS promoter inh | INS promoter inh cell count | HSV augment | HSV augment primary fold
O=C1NC(CCc2ccccc2)C(=O)N1Cc1ccccc1Cl (stereo unspecified) | 2.0 | -4 | 157 | nt | nt | i | 1
Cc1ccc(S(=O)(=O)CCc2nnc(NC(=O)c3ccccn3)s2)cc1 | 0.7 | 1 | 99 | nt | nt | i | 0.98
CC1=C(/C=C/C(C)=C/C=C/C(C)=C/C(=O)O)C(C)(C)CCC1 | -0.6 | -6 | 92 | -105 | 136 | i | 0.81
CCCOc1ccc(N2C(=O)CC(N3CCC(C(=O)OCC)CC3)C2=O)cc1 (stereo unspecified) | 0.1 | -3 | 86 | 9 | 107 | i | 1.1

Next section.
SMILES | GALR2 ag | PKD1 inh | RGS16-Gao | INS promoter inh | INS promoter inh cell count | HSV augment | HSV augment primary fold
O=C(OCCCC(=O)N1CCOCC1)c1ccccc1 | -0.9 | -11 | 89 | 18 | 111 | i | 1.1
Cc1cc(NC(=O)CCSc2ccccc2)no1 | nt | 4 | 105 | nt | nt | i | 0.9
O=C(Nc1ccccc1)O/N=C(\c1ccccc1)c1ccccn1 | -4.2 | -10 | 90 | nt | nt | i | 0.91
COc1ccc(OC)c(Nc2nc(C3CC3)nc3c2nnn3Cc2ccccc2)c1 | -0.7 | -2 | 103 | -31 | 216 | nt | nt
COc1ccc(C(=O)COc2ccc(NC(C)=O)cc2)cc1 | -1.5 | 4 | 99 | nt | nt | i | 0.9
COc1ccc(S(=O)(=O)N2CCCCCC2)cc1N(C)S(=O)(=O)c1ccc(C)cc1 | -0.9 | -8 | 100 | nt | nt | i | 1
Cc1cccc(C(=O)Nc2ncc(CN3CCOCC3)s2)c1 | -0.8 | 8 | 187 | -414 | 37 | i | 0.83
CCOC(=O)C(CC)(CCC(=O)O)c1csc(Nc2ccc(C)cc2)n1 (stereo unspecified) | nt | -8 | 106 | nt | nt | i | 0.98
CCOCCCNC(=O)C(c1ccc(C)cc1)N(Cc1ccc2c(c1)OCO2)C(=O)CNC(C)=O (stereo unspecified) | 1.0 | -1 | 103 | -47 | 117 | i | 0.97
Clc1ccc(-c2nnc(-c3ccccc3Cl)o2)cc1 | -0.8 | 21 | 87 | nt | nt | i | 0.96
CC1Cc2ccccc2N1C(=O)c1cc2sccc2n1Cc1ccccc1 (stereo unspecified) | -1.9 | -5 | 100 | -114 | 39 | i | 1.1
Cn1c(Cc2nc(-c3cnccn3)no2)nnc1SCC(=O)Nc1ccccc1 | nt | nt | 98 | nt | nt | i | 1.1
CN1CCN(C(=O)c2cnn3c(C(F)(F)F)cc(-c4cccs4)nc23)CC1 | -0.3 | -2 | 107 | -100 | 115 | i | 0.93
S=C(NCCc1ccccc1)NC1CC2CCC(C1)N2Cc1ccccc1 (stereo unspecified) | nt | 1 | 111 | 0 | 139 | i | 0.93
CN(C)C=Nc1nonc1-c1ncn[nH]1 | -1.4 | -4 | 101 | 0 | 52 | i | 0.87
Cc1ccc(NC(=S)NCCc2ccccc2)c(C)c1 | -1.5 | -13 | 71 | 22 | 69 | i | 0.84
O=S(=O)(NCCc1cn2ccccc2n1)c1cccs1 | -5.2 | 8 | 109 | nt | nt | i | 0.91
O=C(CSc1nnnn1-c1ccc(Cl)cc1)Nc1cccnc1Cl | 0.0 | -18 | 98 | -27 | 125 | i | 0.95
Cc1ccc(CNC(=O)CSc2c3c(nc4ccc(Cl)cc24)CCCC3)o1 | -2.8 | 3 | 102 | nt | nt | i | 1.1
COc1ccc(-c2cc(C(F)(F)F)c(C#N)c(SCC(=O)Nc3ccc(C)cc3)n2)cc1 | -4.0 | 2 | 101 | -8 | 138 | i | 0.96
Cc1cc2oc(C(=O)N(Cc3ccco3)C3CCS(=O)(=O)C3)cc(=O)c2cc1Cl (stereo unspecified) | 0.2 | -8 | 103 | nt | nt | i | 0.76
COc1cccc(N2CCN(C(=O)c3ccc(N4C(=O)NC5CC4(C)Oc4ccccc45)cc3)CC2)c1 (stereo unspecified) | -3.0 | 3 | 83 | nt | nt | nt | nt
NC(=O)c1ccc(-n2nnnc2SCc2ccccc2)cc1 | -2.3 | 2 | 76 | nt | nt | i | 0.88
COC(=O)C1=C(CSc2nncn2C)NC(=O)NC1c1cc(C)ccc1C (stereo unspecified) | -0.6 | -8 | 97 | -5 | 97 | i | 0.89
CCC(C)OC(=O)c1[nH]c2c(c1C)C(=O)CC(c1ccc(N(C)C)cc1)C2 (stereo unspecified) | -1.1 | 4 | 98 | -43 | 75 | i | 0.77
O=C(c1cc2ccccc2o1)N1CCC(N2CCC(C(=O)N3CCCC3)CC2)CC1 | nt | -2 | 112 | nt | nt | i | 1
COc1ccc(C(=O)Nc2ccc(SC(F)F)cc2)cc1 | -1.2 | -11 | 103 | -14 | 91 | i | 0.99
COc1cc(OC)cc(-n2nnnc2SCC(=O)NCc2cccs2)c1 | nt | -2 | 102 | nt | nt | i | 1
NS(=O)(=O)c1ccc(NC(=O)/C=C/c2ccccc2[N+](=O)[O-])cc1 | nt | 0 | 102 | 50 | 139 | i | 0.91

Arranged by molecular weight (low to high): 5 of the compounds above.
SMILES | GALR2 ag | PKD1 inh | RGS16-Gao | INS promoter inh | INS promoter inh cell count | HSV augment | HSV augment primary fold
COc1ccc(C(=O)Nc2ccc(SC(F)F)cc2)cc1 | -1.2 | -11 | 103 | -14 | 91 | i | 0.99
NC(=O)c1ccc(-n2nnnc2SCc2ccccc2)cc1 | -2.3 | 2 | 76 | nt | nt | i | 0.88
NS(=O)(=O)c1ccc(NC(=O)/C=C/c2ccccc2[N+](=O)[O-])cc1 | nt | 0 | 102 | 50 | 139 | i | 0.91
COC(=O)C1=C(CSc2nncn2C)NC(=O)NC1c1cc(C)ccc1C (stereo unspecified) | -0.6 | -8 | 97 | -5 | 97 | i | 0.89
O=C(c1cc2ccccc2o1)N1CCC(N2CCC(C(=O)N3CCCC3)CC2)CC1 | nt | -2 | 112 | nt | nt | i | 1

Screens: PubChem BioAssay, several laboratories
